From PubChem BioAssay
KCNQ2 block = KCNQ2 potassium channel inhibitors, primary screen, cell-based, CHO-K1, FluxOR thallium flux, B-score (AID 2156). O88943. 20 min; stronger effect = lower value; only compounds with negative scores are shown here; some inactives read as strong as hits. B-score at 10 µM. 1.1% of 310,000 active;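 active = fluorescence ratio B-score at most minus 3 library SDs, with starting brightness B-score within 2 library SDs, cut at about -5.5 in these data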
Target sequence (O88943 whole entry, looked up): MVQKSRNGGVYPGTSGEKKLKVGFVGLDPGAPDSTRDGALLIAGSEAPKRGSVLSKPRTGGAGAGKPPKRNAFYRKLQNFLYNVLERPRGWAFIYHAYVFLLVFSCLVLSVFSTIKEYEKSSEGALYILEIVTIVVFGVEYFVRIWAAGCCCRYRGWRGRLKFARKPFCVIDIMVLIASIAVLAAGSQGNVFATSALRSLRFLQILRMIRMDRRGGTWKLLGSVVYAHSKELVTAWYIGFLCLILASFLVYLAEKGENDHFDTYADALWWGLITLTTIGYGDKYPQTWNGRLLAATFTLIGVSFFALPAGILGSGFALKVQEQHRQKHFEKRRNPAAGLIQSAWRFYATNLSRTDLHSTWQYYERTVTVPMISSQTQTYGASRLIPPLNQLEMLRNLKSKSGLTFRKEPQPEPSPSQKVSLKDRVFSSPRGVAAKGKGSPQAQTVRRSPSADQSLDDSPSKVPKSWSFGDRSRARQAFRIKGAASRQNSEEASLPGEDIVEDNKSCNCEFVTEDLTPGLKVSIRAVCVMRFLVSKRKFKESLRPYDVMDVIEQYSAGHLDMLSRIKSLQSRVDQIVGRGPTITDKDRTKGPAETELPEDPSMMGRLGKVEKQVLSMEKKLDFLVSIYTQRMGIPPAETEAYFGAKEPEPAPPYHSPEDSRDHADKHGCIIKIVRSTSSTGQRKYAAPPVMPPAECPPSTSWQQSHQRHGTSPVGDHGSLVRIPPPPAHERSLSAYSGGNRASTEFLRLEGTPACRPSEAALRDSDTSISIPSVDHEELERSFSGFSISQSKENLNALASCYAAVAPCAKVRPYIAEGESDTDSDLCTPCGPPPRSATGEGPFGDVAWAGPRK
KCNQ2 block baseline = further read-out of KCNQ2 block, marked with its call; B-score; measured here: initial fluorescence intensity artifact check;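 brightness before thallium and not channel activity; 0 = typical well and far values either way flag optical interference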
Numbers without * were called inactive; i = inactive. Not all compounds are listed; count on the stated rates, not on these rows.

cpd | mol | KCNQ2 block | KCNQ2 block baseline
1 | Cc1ccc(Oc2ccc(Cl)cc2NC(=O)c2cnccn2)cc1 | i | -0.51
2 | FC(F)(F)COc1nc(N2CCOCC2)nc(N(c2ccccc2)c2ccccc2)n1 | i | 1.06
3 | O=C(CCn1c(=S)oc2ccccc21)NC1CCCCC1 | i | 1.11
4 | Cc1sc2nc(CSCC(=O)N(CCC#N)c3ccccc3)[nH]c(=O)c2c1C | i | 1.36
5 | O=C(/C=C/c1ccc(O)c(O)c1)OCCc1ccccc1 | i | -0.83
6 | S=C(NC1CCCC1)N1CCN(c2cccc(Cl)c2)CC1 | i | -0.68
7 | COc1cc2c(cc1OC)/C(=C/C#N)NC(C)(C)C2 | i | 0.13
8 | COc1ccc(CNC(=O)C(=O)NCCC2CCCCN2S(=O)(=O)c2ccccc2)cc1 (configuration not stated) | i | -1.34
9 | CC(C)c1ccccc1NCC(=O)N1CCN(Cc2ccccc2)CC1 | i | -0.79
10 | Cc1ccc(NC(=O)Cn2cccc2)cc1Cl | i | -1.07
11 | CC(C)NC(=O)c1c(O)c2cccc3c2n(c1=O)CCC3 | i | 0.16
12 | COc1ccccc1CNC(=O)C1(C)Oc2cccnc2NC1=O (configuration not stated) | i | 0.09
13 | Fc1ccc(/C=N/N2CCCCC2)c(F)c1 | i | 1.78
14 | Cc1ccnc(OC(C(=O)O)C(OCCc2ccccc2)(c2ccccc2)c2ccccc2)n1 (configuration not stated) | i | -0.87
15 | Cc1cc(N2CCN(C(=O)c3ccco3)CC2)n2ncc(-c3ccccc3)c2n1 | i | -1.43
16 | Cc1cccc(NC(=O)c2ccc(N3C(=O)C4C5C=CC(C6CC56)C4C3=O)cc2)c1 (configuration not stated) | i | 0.37
17 | CCOC(=O)CN1C(=O)N[C@@H](c2cccc(F)c2)C(C(=O)OC)=C1C | i | -0.23
18 | Cc1cccc(C2(c3cccc(C)c3)OC(=O)c3ccccc32)c1 | i | 0.5
19 | Cc1cccc(N(C(=O)c2cnc3n(c2=O)CCS3)C2CCCCC2)c1 | i | 0.33
20 | C(=N\Nc1nc2ccccc2s1)/c1ccc2c(c1)OCO2 | i | -0.27
21 | CCCCCCCC(O)CC(CC1CCCCC1)C(=O)NN (configuration not stated) | i | -1.39
22 | O=C(c1cc2ccccc2oc1=O)N(c1ccccc1)C1C=CS(=O)(=O)C1 (configuration not stated) | i | 0.7
23 | O=S(=O)(c1cccc(Br)c1)N1CCN(c2ccnc3cc(Cl)ccc23)CC1 | i | 0.03
24 | Cc1ccc(-c2c(C)nn3c(N4CCOCC4)cc(C)nc23)cc1 | i | 0.28
25 | COc1ccc(C(C(=O)NC(C)(C)C)N(Cc2ccc(C)cc2)C(=O)CCC(=O)Nc2cc(C)on2)cc1 (configuration not stated) | i | -1.07
26 | CN(C)c1cccc(C(=O)NC2CCCc3ccccc32)c1 (configuration not stated) | -6.49* | 0.08*
27 | C=CCNC(=S)NNC(=O)c1ccc(OCC)cc1 | i | -0.05
28 | CCOc1ccc(S(=O)(=O)n2ccnc2)c2ccccc12 | i | 0.86
29 | O=S(=O)(c1ccc2nnn(OCc3ccccc3)c2c1)N1CCOCC1 | i | -0.99
30 | COc1ccc(CSc2nncn2N)cc1[N+](=O)[O-] | i | 1.55
31 | Cc1ccc(S(=O)(=O)N[C@@H](CO)C(=O)N[C@@H](Cc2ccc(O)cc2)C(=O)O)cc1 | i | 0.62
32 | COc1ccccc1N1CCN(C2CCCN(C(=O)CN3CCCC3=O)C2)CC1 (configuration not stated) | i | -0.43
33 | O=C(CSCc1nc2ccccc2[nH]1)Nc1ccccc1 | i | -0.89
34 | C(#CCN1CCOCC1)COCCCOC(c1ccccc1)c1ccccc1 | i | 0.67
35 | CCc1cccc(C)c1NC(=O)Cn1nc(C)n2cccc2c1=O | i | 0.83
36 | CCOC(=O)Cc1csc(NC(=O)CSc2nnnn2-c2ccc(CC)cc2)n1 | i | -0.15
37 | Brc1ccc(Sc2cnc3ccccc3n2)cc1 | i | 0.33
38 | Cc1ccccc1C(=O)c1cccn1CC(=O)NC1CCCC(C)C1C (configuration not stated) | i | -2.59
39 | CCN(CC)c1ccc(NC(=S)NC(=O)C2CCC2)cc1 | i | -0.31
40 | CC1=CC(=O)N(c2cccc(C(F)(F)F)c2)C1c1ccc(Cl)cc1 (configuration not stated) | i | -0.03
41 | CCOC(=O)N1CCN(c2cccc(C)c2C)CC1 | i | -0.85
42 | CCCCOc1[nH]c2nc(-c3ccco3)n(Cc3ccco3)c(=N)c2c1C#N | i | 2.79
43 | Cc1ccc(-c2cc(C(=O)NCCCN3CCOCC3)c3ccccc3n2)cc1C | i | 1.71
44 | COC(=O)c1ccc(C(=O)OC)c(NC(=O)CSCC(=O)O)c1 | i | -1.07
45 | COc1ccc(C2/C=C\CN(C(=O)Oc3ccccc3)CC(=O)N2Cc2ccc(F)cc2)cc1 (configuration not stated) | i | 0.56
46 | CCOC(=O)c1c(-c2ccc(C)s2)csc1N | i | 0.55
47 | CCc1cccc(CC)c1NC(=O)c1cccc(S(=O)(=O)N2CCN(C)CC2)c1 | i | 0.09
48 | COc1ccccc1C1C=C(c2ccc(Cl)cc2)Nc2nc(NS(C)(=O)=O)nn21 (configuration not stated) | i | 2.39
49 | O=C(NNC1OC(CO)C(O)C(O)C1O)c1cccc(Br)c1 (configuration not stated) | i | 0.15
50 | C=CCN1C=C2C(=O)C(C)(OC(=O)CC)C(=O)C=C2C=C1CCCC (configuration not stated) | i | 0.1
51 | O=c1c2cc(-c3ccccc3)sc2nc2n1CCC2 | i | 0.31
52 | CC(C)c1ccc(NC(=O)C(c2ccccc2)N2CC(=O)Nc3ccccc32)cc1 (configuration not stated) | i | 1.52
53 | Nc1cccc(Oc2c(F)c(F)c(Oc3cccc(N)c3)c(F)c2F)c1 | i | 1.36
54 | COc1ccc(-c2nn(-c3ccccc3)cc2C(N)=O)cc1OC | i | -0.51
55 | CCCOc1ccc(N2C(=O)CC(N3CCC(c4nc5ccccc5o4)CC3)C2=O)cc1 (configuration not stated) | i | 2.48
56 | CCC(=O)N(C1=C(NC)C(=O)c2ccccc2C1=O)C(C)C | i | -1.17
57 | NC(=O)/C(=N\OC(=O)c1ccco1)c1nc(-c2ccc(Br)cc2)cs1 | i | -0.41
58 | COc1ccc(C(=O)C2=NN(C(C)=O)CC2c2ccco2)cc1 (configuration not stated) | i | 3.8
59 | Cc1cc(NC(=O)CCC(=O)N(Cc2ccco2)C2(C(=O)NC3CCCC3)CCC(C)CC2)no1 (configuration not stated) | i | -0.15
60 | Cc1cc(C)c2nc(SCCC#N)nc(C)c2c1 | i | -0.67

Next entries.
cpd | mol | KCNQ2 block | KCNQ2 block baseline
61 | Cn1cc(Cl)c(C(=O)NC2CCCCCC2)n1 | i | 2.02
62 | O=c1[nH][nH]c(-c2ccccc2O)c1C(C[N+](=O)[O-])c1ccc(Br)cc1 (configuration not stated) | i | -1.03
63 | O=[N+]([O-])c1ccc(N/N=C/c2cn(Cc3ccc(F)cc3)c3ccccc23)nc1 | i | 0.62
64 | COc1ccc(NS(=O)(=O)c2cccc(C(=O)N(C)Cc3cccs3)c2)cc1 | i | -0.98
65 | Cc1ccccc1OCC(=O)Nc1nnc(C2CCCCC2)s1 | i | 1.7
66 | Cc1ccc2cc(C(c3nnnn3C3CCCC3)N3CCN(c4ccccc4)CC3)c(=O)[nH]c2c1 (configuration not stated) | i | 1.82
67 | CCc1ccc(C(=O)N2CCCC2)s1 | i | 1.32
68 | COc1ccc(NC(=O)c2ccc(NC(=O)CN(C)CC(=O)Nc3c(C)cccc3C)cc2)cc1 | i | 2.16
69 | CCN(CC)c1ccc2c(Cl)c(Br)c(=O)oc2c1 | i | 24.6
70 | COc1ccccc1N1CCN(C(=O)c2cccc3c(=O)c(C)c(-c4ccccc4)oc23)CC1 | i | -0.1
71 | COC(=O)c1ccc(COc2cccc3c2CCN(Cc2cccc(C)c2)C3=O)o1 | i | -0.45
72 | Cc1ccc(/C=N\NC(=O)c2cc([N+](=O)[O-])cc([N+](=O)[O-])c2)o1 | i | -2.42
73 | COc1ccc(CC(=O)Nc2c3c(nn2-c2cccc(C)c2C)CS(=O)(=O)C3)cc1 | i | -0.23
74 | C/C(=N\Nc1nc(N2CCCCC2)nc(N2CCOCC2)n1)c1cccs1 | -7.62* | -1.15*
75 | COc1cc(O)c(CCO)c2c1C(=O)C[C@@H](C)O2 | i | -0.85
76 | CN(C)CC#Cc1cncc(C(=O)NNC(=O)Nc2ccc(Cl)cc2)c1 | i | 0.03
77 | COc1ccc(N2CCN(C(=O)Cn3cnc4c(cnn4-c4ccc(C)cc4)c3=O)CC2)cc1 | i | 0.85
78 | C=CCSc1nnc(Cc2c(C)[nH]c3ccccc23)o1 | i | 0.36
79 | COc1cc(C)nc(NS(=O)(=O)c2ccccc2)n1 | i | 0.83
80 | CCCCn1c(=O)[nH]c(=O)c2c1nc(-c1ccc(OCC)cc1)n2CC | i | -1.05
81 | COCCCNC(=O)C1CCCN(C(=O)Nc2ccc(OC)cc2)C1 (configuration not stated) | i | 0.48
82 | CC(=O)Nc1cccc(NC(=O)CSc2nc3c(=O)n(C)c(=O)n(C)c3n2C)c1 | i | -1.88
83 | O=C(CCCCCNC(=O)N1CCn2c1nc1ccccc12)N[C@@H](C(=O)O)c1ccccc1 | i | 0.05
84 | O=C(COc1ccc(/C=N/NC(=O)c2ccccc2O)cc1)Nc1ccc([N+](=O)[O-])cc1 | i | 0.4
85 | CC(=O)c1cc(C#N)c(SCC(=O)OC(C)(C)C)nc1C | i | -1.06
86 | CCOC(=O)C(C)(C)N(Cc1ccccc1C)S(=O)(=O)c1ccc(Cl)c([N+](=O)[O-])c1 | -7.25* | -1.44*
87 | O=C(c1cccc(OC(F)F)c1)N1CCN(c2ncccn2)CC1 | i | 1.29
88 | C#CCOc1c(Cl)cc(C2C3=C(CCCC3=O)N(CC(=O)O)C3=C2C(=O)CCC3)cc1OC | i | -0.48
89 | CCOC(=O)c1c(S(=O)(=O)N2CCCC2)c(C)n(C)c1C | i | -1.76
90 | CCN(c1cc(C)cc(C)c1)S(=O)(=O)c1nnc(NC(=O)C(C)(C)C)s1 | i | -1.76
91 | OC1CCN(c2c3c(nc4cc(-c5cccc(F)c5)nn24)CCCC3)CC1 | i | 0.04
92 | COC(=O)c1ccccc1NC(=O)NC1CCCC1 | i | -0.58
93 | COc1ccc(CC(=O)Nc2cccc(-c3nnc(-c4ccco4)o3)c2)cc1 | i | -3.19
94 | O/N=C/c1cc(Br)cs1 | i | 2.58
95 | FC(F)(F)c1cc(-c2ccccc2)nc(NCC2CCCO2)n1 (configuration not stated) | i | -1.13
96 | CCn1c(SCC(=O)OC)nnc1-c1ccncc1 | i | -1.91
97 | Cc1ccc(-c2ccc(CCC(=O)O)n2CC(=O)O)cc1 | i | 1.3
98 | CC1CCN(Cc2c(C(=O)N/N=C/c3cc(Cl)ccc3O)nnn2-c2nonc2N)CC1 | i | -0.33
99 | CCCS(=O)(=O)N1CCCC(C(=O)NCCCN2CCN(c3ccccc3F)CC2)C1 (configuration not stated) | i | -0.03
100 | CN(C)c1ccc(/C=N/NC(=O)CCCCCNC(=O)c2ccccc2)cc1 | i | 1.08
101 | O=C(Nc1nc(-c2cc(F)ccc2F)cs1)c1ccccn1 | i | 1.03
102 | CCc1cccc(NC(=O)C2CCN(S(=O)(=O)c3ccc4[nH]c(=O)ccc4c3)CC2)c1 | i | 0.1
103 | COc1cc(NC(=S)NCc2ccco2)c(OC)cc1Cl | i | -0.02
104 | COc1ccc(CCNC(=O)c2c(O)c3ccccc3[nH]c2=O)cc1OC | i | 2.42
105 | CC1=NN(C(N)=S)C(=O)C1N=Nc1cc(Cl)ccc1Cl (configuration not stated) | i | 1.91
106 | COc1ccc(N(C(=O)C(C)C)S(=O)(=O)c2ccc3ccccc3c2)cc1 | i | -0.05
107 | O=C(Nc1ccccc1)c1cnc(-c2ccccc2)nc1-c1ccccc1 | i | -0.48
108 | OCCN(CCO)c1ncnc2c1oc1ccc(Br)cc12 | i | -0.38
109 | CCOC(=O)c1cc(C(C)=O)n2ccccc12 | i | 0.24
110 | COc1ccc(NS(=O)(=O)c2cccc(C(=O)NNC(=O)c3cc(C)oc3C)c2)cc1 | i | 1.28
111 | O=C(N/C(=C\c1ccc(F)cc1)C(=O)N1CCOCC1)c1ccccc1 | i | 0.82
112 | O=C(COc1ccc2c3c(c(=O)oc2c1)CCC3)N1CCN(c2ccccc2)CC1 | i | 0.57
113 | COc1cc(-c2noc(C)c2-c2ccc3[nH]ccc3c2)cc(OC)c1OC | i | -0.71
114 | Cc1cccc(NC(=O)C2COc3ccccc3O2)n1 (configuration not stated) | i | -1.27
115 | NC(=O)CSc1nnc(CSc2ncccn2)n1-c1ccccc1 | i | 1.06
116 | CCOC(=O)c1c(NC(=O)C(Sc2ccccc2)c2ccccc2)sc(C(N)=O)c1C (configuration not stated) | i | 0.97
117 | C=C1CC(C)OC(c2ccccc2OCC(O)CN2CCCCC2)C1 (configuration not stated) | i | -0.34
118 | CC(C)NC(=O)C1CCN(C2CCN(CC3CC=CCC3)CC2)CC1 (configuration not stated) | i | 1.66
119 | CC(Sc1nncn1C)C(=O)Nc1ccccc1-c1ccccc1 (configuration not stated) | i | -0.09
120 | Cc1oc2cc(O)ccc2c(=O)c1-c1nncn1-c1ccccc1 | i | 9
121 | COCC(=O)N1CCC(Oc2ccc(C(=O)N(C)Cc3nccs3)cc2)CC1 | i | -0.27
